A647 fluor = qHTS Assay for Spectroscopic Profiling in A647 Spectral Region | max dye-equivalent concentration, M | 59,000 tested, under 10 active | Compound fluorescence, A647 channel (570/671 nm), Tris buffer; active means above 1 µM dye equivalent; inconclusive means 0.1 to 1 µM; inactive means 0.1 µM or less;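 also: values scaled relative to a standard on each plate; highest value over a series up to 38 µM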
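Compound fluorescence was measured in 100 mM Tris buffer, pH 8.0, after 15 min at room temperature, using 570 nm excitation and 671 nm emission filters. Signal was normalized to a per-plate Alexa 647 standard curve and expressed as dye-equivalent concentration at each compound concentration.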
Resorufin autofl = qHTS Assay for Spectroscopic Profiling in Resorufin Spectral Region. Compound fluorescence, resorufin region 547/598 nm, buffer; active compounds read high. max dye-equivalent concentration, M. actives 0.04% (n = 59,000); active = above 10 nM dye equivalent; inconclusive = 1 to 10 nM; inactive = 1 nM or less; a few of its hits are not listed in these tables; also: highest value over a series up to 38 µM
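Read-out: intrinsic compound fluorescence at ex 547/em 598 nm after 15 min at RT in pH 8.0 Tris (100 mM). Values expressed as resorufin-equivalent concentration from per-plate standard series.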
TSHR ag = qHTS Assay for Agonists of the Thyroid Stimulating Hormone Receptor; actives 0.48% (n = 73,000); AID 926, 2007; HEK293-CNG-TSHR cells (CNG channel as cAMP sensor), membrane potential dye, cAMP; Potency, µM (titrated, usually from 57.1 µM), without a hit: top-dose activation, most hits filed as activators; active = well fitted activation curve of enough size with the parental cells flat; inconclusive = any curve in the parental cells; inactive = parental cells flat and receptor cells flat or falling; also: potency is read from the fitted curve at half-maximal effect; % of control where 0% means no effect; weak receptor curves with flat parental cells got no call and are not listed
Target sequence (P16473 whole entry, looked up): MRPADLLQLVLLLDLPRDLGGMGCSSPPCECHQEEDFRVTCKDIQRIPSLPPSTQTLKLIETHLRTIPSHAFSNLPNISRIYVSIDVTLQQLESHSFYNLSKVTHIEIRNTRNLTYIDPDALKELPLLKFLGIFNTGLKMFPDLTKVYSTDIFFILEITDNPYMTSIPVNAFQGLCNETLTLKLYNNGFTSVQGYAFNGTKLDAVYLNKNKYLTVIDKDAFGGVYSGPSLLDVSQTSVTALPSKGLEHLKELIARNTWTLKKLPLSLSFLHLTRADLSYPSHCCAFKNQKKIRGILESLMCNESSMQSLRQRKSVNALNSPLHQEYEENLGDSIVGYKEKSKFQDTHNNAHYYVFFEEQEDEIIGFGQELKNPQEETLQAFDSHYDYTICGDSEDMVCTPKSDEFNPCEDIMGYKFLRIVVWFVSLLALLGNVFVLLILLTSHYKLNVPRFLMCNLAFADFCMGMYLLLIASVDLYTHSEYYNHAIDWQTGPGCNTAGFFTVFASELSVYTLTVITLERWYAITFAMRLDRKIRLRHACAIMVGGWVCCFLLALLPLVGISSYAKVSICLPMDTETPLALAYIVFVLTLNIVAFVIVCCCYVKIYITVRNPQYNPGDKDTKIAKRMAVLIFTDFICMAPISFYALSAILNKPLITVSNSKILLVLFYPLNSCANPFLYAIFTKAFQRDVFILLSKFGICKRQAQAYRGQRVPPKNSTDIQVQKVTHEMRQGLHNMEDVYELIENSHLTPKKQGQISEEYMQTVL
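HEK 293 cells stably expressing TSHR and a modified CNG channel, with CNG-only parental cells as counterscreen, were preloaded 60 min at room temperature with membrane potential dye containing 100 uM RO 20-1724. Compound exposure was 30 min, and depolarization was read as fluorescence at 590 nm.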
AID923 = qHTS Assay for Allosteric/Competitive Inhibitors of Caspase-1: Spectroscopic Profiling in AFC Spectral Region; compound fluorescence, AFC spectral region (405/520 nm); almost no hit is shown here; Potency, µM (titrated, usually from 57.5 µM), for the others: at the highest dose fluorescence increase, actives largely listed as activators; actives 1.1% (n = 75,000); active = well fitted activation curve with a large enough effect; inconclusive = small, poorly fitted or top-dose-only effect;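 also: potency is read from the fitted curve at half-maximal effect; 0% is about no effect; scaled to a free AFC standard on each plate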
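Titrations up to 57 uM read every 20 sec for 3 min (405/520 nm) with 50 nM caspase 1 and 5 uM Ac-WEHD-AFC, pH 7.5 HEPES buffer. Fluorescence-vs-time intercept gave baseline, scaled against on-plate AFC standard.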
A488 autofl = qHTS Assay for Spectroscopic Profiling in A488 Spectral Region; max dye equivalency, M; actives 0.1% (n = 59,000); compound autofluorescence, A488 spectral region, dye equivalency; active compounds read high; active = above 10 nM dye equivalent; inconclusive = 1 to 10 nM; inactive = 1 nM or less; about half of its hits are not listed in these tables;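 also: highest value over a series up to 38 µM; compound alone in buffer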
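Compounds pin-transferred into 100 mM Tris buffer, pH 8.0, incubated 15 min at room temperature, then imaged with 480 nm excitation/540 nm emission filters. Fluorescence converted to Alexa 488 dye-equivalent concentration via an on-plate six-point A488 standard curve.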
The depositor's hits bear a star; i = inactive; ? = inconclusive; · = not tested or not shown; [ ] = dose if it differs, or a comment. This is a subset. The share of hits here may be higher or lower than overall.

Compound,A647 fluor,Resorufin autofl,TSHR ag,AID923,A488 autofl
COc1ccccc1NC(=O)N1CCC(C(=O)c2ccc(F)cc2)CC1,1e-09,i,2%,-0.6%,i
COc1ccc(-c2csc(NC(C)=O)n2)cc1OC,3.2e-08,i,11%,2.4%,i
Cc1nnc(SCC(=O)Nc2ccc3c4c(cccc24)CC3)n1C,·,·,-7%,1.3%,·
COc1ccc(C2(C(=O)Nc3c(C)n(C)n(-c4ccccc4)c3=O)CCCC2)cc1OC,5.7e-08,i,-2%,6.4%,i
Cc1cc(C(=O)N2CCN(Cc3ccc4c(c3)OCO4)CC2)cs1,·,·,7%,-0.1%,·
CN(C)/N=N\c1nc[nH]c1C(N)=O,1e-09,i,?,2.0%[25.7 µM],i
CC(=O)OCC1OC(C#Cc2ccc(Br)cc2)C=CC1OC(C)=O (centres undefined),·,·,-2%[11.4 µM],3.4%[11.5 µM],·
Cc1n[nH]c(C)c1C(=O)CC1(O)C(=O)N(CCc2ccccc2)c2ccc(Cl)cc21 (centres undefined),9.4e-09,i,0%,-3.1%,i
Cc1cc(C)c2c(n1)sc1c(N3CCN(CCO)CC3)ncnc12,1e-09,i,3%,0.8%,i
O=C1CCc2cc(S(=O)(=O)N3CCN(C(=O)c4ccco4)CC3)ccc2N1,1e-09,i,-1%,1.2%,i
CCN(CC(=O)NC)S(=O)(=O)c1ccc(C)cc1,2e-08,i,4%,-1.1%,i
CS(=O)(=O)N(CC(=O)NC1CCCC1)c1cccc(F)c1,1.3e-09,i,25%,-0.9%,i

(cont.)
Compound,A647 fluor,Resorufin autofl,TSHR ag,AID923,A488 autofl
Cn1cnnc1SCc1ccc(C(=O)O)cc1,9.6e-09,i,-3%,-1.0%,i
c1nc(NCCc2cnc[nH]2)c2[nH]cnc2n1,4.7e-08,i,8%[11.4 µM],-1.6%[11.5 µM],i
COc1ccccc1-c1cc(-n2ccnc2)ncn1,5.2e-09,i,?,0.4%,i
Cc1cc(NS(=O)(=O)c2ccc(NC(=O)c3ccco3)cc2)no1,9.4e-09,i,6%,-0.3%,i
O=C(CSc1nnc(-c2ccc(S(=O)(=O)N3CCCC3)cc2)o1)NCc1ccco1,4.4e-08,i,0%,1.9%,i
N#Cc1nc(Cc2ccccc2)oc1NCCCn1ccnc1,2.9e-08,i,2%,1.3%,i
CC1Cc2ccccc2N1C(=O)CSc1nnnn1-c1ccc2c(c1)OCCO2 (centres undefined),1e-09,i,11%,-2.1%,i
CCOC(=O)c1ccc(NC(=O)C2C3CCC(C3)C2C(=O)O)cc1 (centres undefined),1e-09,i,8%,-1.0%,i
O=C(C1CCCCC1)N1CCCn2c1nc1ccccc12,1e-09,i,·,·,i
CC1CCC(NC(=O)CC2Oc3ccccc3NC2=O)CC1 (centres undefined),·,·,2%,0.5%,·
COC(=O)n1c(=S)oc2cc(Cl)ccc21,3.6e-09,i,-15%,-0.1%,i
N#CCCN(C(=O)Nc1ccccc1)c1ccccc1,3.1e-09,i,11%,0.9%,i

Among those listed so far, three have a furan ring, fused or not:
Compound,A647 fluor,Resorufin autofl,TSHR ag,AID923,A488 autofl
O=C1CCc2cc(S(=O)(=O)N3CCN(C(=O)c4ccco4)CC3)ccc2N1,1e-09,i,-1%,1.2%,i
Cc1cc(NS(=O)(=O)c2ccc(NC(=O)c3ccco3)cc2)no1,9.4e-09,i,6%,-0.3%,i
O=C(CSc1nnc(-c2ccc(S(=O)(=O)N3CCCC3)cc2)o1)NCc1ccco1,4.4e-08,i,0%,1.9%,i

Next structures.
Compound,A647 fluor,Resorufin autofl,TSHR ag,AID923,A488 autofl
COc1ccc(CCNC2=NCC(C)S2)cc1 (centres undefined),3.6e-08,i,·,-0.7%,i
N[C@@H](Cc1[nH]nc2ccccc12)C(=O)O,2.3e-09,i,3%[11.4 µM],-2.7%[11.5 µM],i
CCOC(=O)c1ccc(NC(=O)CC2SCCNC2=O)cc1 (centres undefined),2.9e-08,i,-9%,2.3%,i
CCOC(=O)N1CCN(C(=O)c2cc3c(-c4ccc(Cl)cc4)nn(C)c3s2)CC1,·,·,3%,2.7%,·
CCCn1c(SCC(=O)N2CCCc3ccccc32)nc2c1c(=O)n(C)c(=O)n2C,2.3e-08,i,7%,-1.3%,i
Cc1c(=O)n(OCc2ccccc2F)c2ccccc2[n+]1[O-],6e-09,i,10%,1.6%,i
CCOC(=O)C1CCCN(S(=O)(=O)c2cn(C)c(=O)n(C)c2=O)C1 (centres undefined),·,·,-2%,-2.4%,·
Cc1ccc(S(=O)(=O)Cn2nnnc2CN2CCOCC2)cc1,4.4e-08,i,-4%,-0.5%,i
CN1CCN(S(=O)(=O)c2ccc(NC(=O)C3CCCCC3)cc2)CC1,7.7e-09,i,1%,-1.5%,i
NS(=O)(=O)c1cc(C(=O)O)c(NCc2ccco2)cc1Cl,6.7e-09,i,2%,-2.6%,i
COCCn1c(SCC(=O)c2ccc(F)cc2)nnc1C(C)C,2.3e-08,i,-7%,-1.0%,i
O=C(O)[C@H](Cc1ccccc1)N1C(=O)c2ccncc2C1=O,1.6e-08,i,?,-0.7%,i

(listing goes on)
Compound,A647 fluor,Resorufin autofl,TSHR ag,AID923,A488 autofl
Cc1csc(NC(=O)c2ccccc2C(=O)O)n1,4.5e-08,i,5%,0.4%,i
COc1ccccc1Nc1nc(N)nc(CSc2nc(C)cc(C)n2)n1,1.6e-08,i,-2%,1.8%,i
CCOc1ccc(NC(=O)N(CCN2CCOCC2)Cc2ccc3c(c2)CCCN3CC)cc1,1e-09,i,-4%,3.4%,i
Cc1ccc(NC2=NC(c3ccccc3)n3c(nc(C)cc3=O)N2)cc1 (centres undefined),8.7e-09,i,-9%,-0.9%,i
c1ccc(CCNc2ncnc3nc[nH]c23)cc1,2.9e-09,i,6%,-1.7%,i
Cc1ccc(N(CC(=O)NCc2ccc3c(c2)OCO3)S(C)(=O)=O)cc1,5.3e-09,i,2%,-0.2%,i
COCCn1c(SCC(=O)Nc2nc(C)c(Cl)cc2Cl)nc2ccccc21,3.4e-08,i,5%,1.4%,i
CO[C@H]1COC(=O)[C@H](C)NC(=O)C/C=C\[C@@H](C)[C@@H](NS(=O)(=O)c2ccc(C)cc2)COC(=O)C/C=C\[C@@H]1C,·,·,-4%[11.4 µM],2.4%[11.5 µM],·
COc1ccccc1OCCCCNCCO,·,·,4%,3.7%,·
O=C1Nc2ccc(Br)cc2C1(O)Cc1ccccn1 (centres undefined),·,·,-4%,5.8%,·
O=C(Nc1ccc2c(c1)OCCO2)c1ccco1,·,·,5%,0.2%,·
COCC(C)n1c(C)cc(C(=O)COC(=O)c2c(NC(C)=O)sc(C)c2C)c1C (centres undefined),3.4e-08,i,13µM*,1.2%,i

(further entries)
Compound,A647 fluor,Resorufin autofl,TSHR ag,AID923,A488 autofl
CCOC(=O)c1[nH]c(C)c(C(=O)NCCC2=CCCCC2)c1C,1e-09,i,19%,-0.5%,i
C=CCn1c(SCc2cccnc2)nnc1-c1ccncc1,1e-09,i,-2%,0.4%,i
CC(C)C[C@H](NC(=O)N1CCN(c2ccccc2)CC1)C(=O)O,2.2e-08,i,14%,-2.4%,i
O=C(CSc1ncccn1)Nn1cnnc1,1.2e-08,i,3%,-4.7%,i
O=S(=O)(c1ccccc1)N1CCC[C@@]2(CCN(C(c3ccccc3)c3ccccc3)C2)C1,5.9e-09,i,24%,0.7%,i
Cn1c(C(O)c2ccc(Cl)cc2)nc(Cl)c1Cl (centres undefined),5.1e-09,i,-2%,-1.5%,i
CCc1ccccc1NC1c2ccccc2C(=O)N1c1cc(C)ccn1 (centres undefined),·,·,15%,-0.2%,·
Cc1ccc2c(CN3CCCc4ccccc43)cc(=O)oc2c1C,2.3e-08,i,·,3.3%,i
COc1ccc(C(=O)N2CCC3(CC2)CN(c2ccc(-c4ccccc4)cc2)C3)cc1,1e-09,i,?,0.2%,i
CC(C)=CCSc1nnc(CCNC(=O)OC(C)(C)C)o1,6.6e-09,i,12%,1.2%,i
CCCc1cc(=O)[nH]c(SCC(=O)Nc2nonc2N)n1,7.9e-09,i,2%,-0.1%,i
O=C(O)CCS(=O)(=O)Cc1ccccc1F,1.1e-08,i,-1%,0.9%,i

The list continues.
Compound,A647 fluor,Resorufin autofl,TSHR ag,AID923,A488 autofl
COc1cc(OC)cc(C(=O)N(CN2CCCC2=O)c2ccccc2OC)c1,4.3e-08,i,2%,-2.1%,i
COc1cccc2sc(Nc3nnc(-c4ccccc4Cl)o3)nc12,·,·,-8%,5.6%,·
CN1C(=O)CSc2ccc(NC(=O)N3CCc4ccccc43)cc21,4.9e-08,i,0%,-0.8%,i
O=C(NCCCN1CCN(c2ccc(F)cc2)CC1)c1cccc(N2CCCC2=O)c1,8.5e-09,i,2%,-2.1%,i
COc1cccc(C=Nc2cc(C)on2)c1O,5.3e-09,i,-5%,4.0%,i
CC(C)Oc1ccc(C2/C(=C(/O)c3ccc(F)cc3)C(=O)C(=O)N2CCCN(C)C)cc1 (centres undefined),1.3e-08,i,-2%,0.9%,i
CCNC(=O)CC1C(=O)N(c2ccccc2)C(=O)N1CCc1ccc(OC)cc1 (centres undefined),1.5e-08,i,1%,-0.9%,i
O=C1CCCC2=C1C(c1ccncc1)c1c(nc(SCc3ccccc3)[nH]c1=O)N2 (centres undefined),3e-08,i,-3%,2.7%,i
COc1cccc(Cn2c(-c3nonc3N)nc3ccccc32)c1,2.9e-08,i,?,-0.4%,i
COC(=O)C/C=C\[C@H](C)[C@@H](OC)c1ccccc1Br,·,·,-5%[11.4 µM],-0.6%[11.5 µM],·
Cc1ccc(C)c(NC(=O)CSc2nnc(-c3ccccc3)n2N)c1,3.8e-09,i,-4%[11.4 µM],-0.8%,i
C1CCC2=NCCCN2CC1,3.1e-08,i,-11%,-1.9%,i

More results follow.
Compound,A647 fluor,Resorufin autofl,TSHR ag,AID923,A488 autofl
Cc1noc(C)c1C(=O)Nc1c(F)cc(F)cc1Br,6.4e-09,i,8%,1.4%,i
CCS(=O)(=O)N1CCCC(C(=O)NC2CCC(C)CC2)C1 (centres undefined),3.4e-09,i,0%,-2.9%,i
CCOC(=O)Nc1ccc2c(c1)N(C(=O)CCN1CCN3CCCC3C1)c1ccccc1CC2 (centres undefined),1e-08,i,10%,6.7%,i
Nc1ncn([C@@H]2O[C@H](CO)[C@@H](O)[C@H]2O)c(=O)n1,·,·,-8%,-1.7%,·
Cc1noc(C)c1C(=O)N1CCC2(CCCN(C(c3ccccc3)c3ccccc3)C2)CC1,1e-09,i,?,1.1%,i
C=CCc1ccccc1OCC(O)CN1CCN(c2ccccc2OC)CC1 (centres undefined),8.9e-09,i,17%,-1.3%,i
Cc1ccc(C)c(Cn2c(=O)n(CCC(=O)NCc3ccco3)c(=O)c3sccc32)c1,1.7e-08,i,?,1.4%,i
COc1ccc(Cn2c(=O)sc3ccccc32)cc1OC,2.4e-08,i,·,1.6%,i
Cc1cccc(-c2nsc(SCC(=O)N3CCCC3)n2)c1,1.3e-08,i,6%,1.3%,i
O=C(NCC1CCCO1)c1cc2n(n1)C(C(F)(F)F)CC(c1ccc(Br)cc1)N2 (centres undefined),1.7e-08,i,4%,0.4%,i
COC(=O)C1CCN(c2nc3ccccc3nc2C(C#N)C(=O)NCCc2ccccc2)CC1 (centres undefined),1e-09,i,·,·,i
CC(=O)Nc1ccc(C(=O)OCC(=O)NC(=O)NC2CCCCC2)cc1,5.5e-09,i,-3%,-1.6%,i

Bioassay records: PubChem, National Center for Advancing Translational Sciences (NCATS)
